WNV NS2B-NS3 inh: inhibitors of WNV NS2B-NS3 protease, primary screen, biochemical, fluorogenic substrate; Genome polyprotein (West Nile virus), P06935; fluorogenic substrate Ex360/Em465; active compounds read low; z-score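 (tested at a level between 10 and 100 µM)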; 65,000 tested, 0.18% active; AID 577, 2007;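 active = z-score at -3 or under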;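 note: score is relative to mean and spread of the compound wells of a plate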
Target sequence (P06935 1371-1501 limits assumed): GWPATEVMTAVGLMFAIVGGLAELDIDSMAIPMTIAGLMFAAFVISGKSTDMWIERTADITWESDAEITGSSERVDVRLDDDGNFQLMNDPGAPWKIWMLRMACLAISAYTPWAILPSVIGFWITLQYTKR
Target sequence (P06935 1502-1679 limits assumed): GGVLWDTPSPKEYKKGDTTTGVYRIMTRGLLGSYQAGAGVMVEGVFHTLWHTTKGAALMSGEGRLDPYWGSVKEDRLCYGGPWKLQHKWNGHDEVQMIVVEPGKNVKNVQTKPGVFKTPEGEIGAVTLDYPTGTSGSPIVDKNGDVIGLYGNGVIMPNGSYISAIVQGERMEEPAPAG
Hsc70: Hsc70 inhibitors, probe displacement, primary screen, biochemical, fluorescence polarization (AID 568). Heat shock cognate 71 kDa protein (Homo sapiens). Hsc70 fluorescence polarization, probe displacement; higher % means a stronger effect; strong numbers were not always called active. displacement, % at 20 µM, or IC50 in µM where a hit was titrated. 83,000 tested, under 10 active;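 active = displacement above 50% without optical interference and an IC50 on retest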;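 note: ATPase domain with a fluorescein-tagged ATP probe; 0% = vehicle and 100% = excess ADP; read after one hour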
MT1-MMP promoter: inhibitors of MT1-MMP promoter transcription, cell-based, luciferase reporter, luminescence (AID 618); MT1-MMP promoter luciferase reporter cells, luminescence; calls from a first round at 10 µM; hits with a dose series show EC50 in µM; 87,000 tested, 0.62% active;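 active = over half of the reporter light lost at 10 µM or EC50 under 50 µM; inactive = the rest and hits that failed the dose series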;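 note: actives suppress MT1-MMP promoter-driven transcription so potencies describe inhibitors; HT1080 fibrosarcoma cells; overnight exposure; toxic or luciferase-blocking compounds were not removed from the actives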
Numbers without * were called inactive; i = inactive; · = no result given.

SMILES | WNV NS2B-NS3 inh | Hsc70 | MT1-MMP promoter
c1ccc2c(c1)[nH]c1c(N3CCSCC3)ncnc12 | -1.4 | 1.8% | i
COc1ccc(NC(=O)c2ccco2)cc1N | 0.16 | -7.5% | i
CCOC(=O)Cc1csc(NC(=O)COc2ccc(OC)cc2)n1 | 0.85 | 1.0% | i
Cc1ccc(N(C(=O)c2ccc3c(c2)OCO3)C2C=CS(=O)(=O)C2)cc1 (stereo not given) | -0.94 | -2.0% | i
O=C1CCCC2=C1C1(CCCC1)N=C(Nc1nc3ccccc3o1)N2 | 1.1 | -0.7% | i
Cc1cc(-n2c(C)cc(C(=O)CN3C(=O)NC4(CCCCC4C)C3=O)c2C)no1 (stereo not given) | -1.3 | -7.8% | i
COc1ccc(S(=O)(=O)N2CCC(n3cnc4cc(C(F)(F)F)ccc43)CC2)cc1 | -0.47 | 1.2% | i
CC(C)COC(=O)Nc1ccc(C(=O)O)cc1 | · | 3.6% | i
COc1ccccc1N1CCN(CCc2n[nH]c(=S)n2-c2ccccc2)CC1 | 1.7 | 4.7% | i
COc1ccc(C)cc1C(=O)C1CC(C(=O)O)C(C)(C)C1C (stereo not given) | -1 | -8.2% | i
CCCS(=O)(=O)N1CCCC(C(=O)NCCc2ccc(OC)c(OC)c2)C1 (stereo not given) | 1.1 | 4.6% | i
COc1cccc(-c2nc(CS(=O)CC(=O)NCCCOC(C)C)c(C)o2)c1 (stereo not given) | -0.73 | -1.0% | i
COC(=O)C(C)Sc1nnc(Cc2cc(=O)[nH]c(=O)[nH]2)n1-c1ccc(Cl)cc1 (stereo not given) | -0.4 | 3.1% | i
CSc1nnnn1CCn1nnnc1SC | 0.29 | 1.1% | i
O=C(Nc1cccc(Cl)c1)C1CCCN(S(=O)(=O)c2cnc[nH]2)C1 (stereo not given) | 0.26 | 4.0% | i
CCOc1ccc(NCCC(=O)c2ccc3c(c2)OCO3)cc1 | -0.42 | -5.2% | i
CCOC(=O)C1CCN(C(=O)Cc2c(C(=O)O)n(CC)c3ccccc23)CC1 | 1.1 | -4.0% | i
COc1ccc2[nH]c(=O)c(CN(C(=O)c3cccnc3)c3ccccc3OC)cc2c1 | -0.03 | -1.6% | i
CC(=O)Nc1ccc(S(=O)(=O)N2CCCN(S(=O)(=O)c3ccc(C)cc3)CC2)cc1 | -0.65 | -0.8% | i
CNc1oc(-c2ccccc2)nc1C#N | -0.85 | 5.7% | i
CCOC(=O)C1=C(C)OC(N)=C(C#N)C1c1ccc(O)c(OC)c1 (stereo not given) | · | 0.5% | i
N#Cc1ccsc1NC(=O)CN1CCN(c2ccccn2)CC1 | · | -2.3% | i
CCc1cc(=O)oc2cc(C)cc(OC(C)C(=O)O)c12 (stereo not given) | -1.4 | 0.6% | i
O=C(Nc1ccccc1F)c1ccco1 | · | 0.4% | i
O=C(NCC12CC3CC(C1)CC(CNC(=O)N1CCCC1)(C3)C2)N1CCCC1 | -0.09 | -0.6% | i
SMILES | WNV NS2B-NS3 inh | Hsc70 | MT1-MMP promoter
CCN1CCN(C2CCN(C(C)=O)CC2)CC1 | -0.31 | 3.3% | i
CC(=O)NCCc1ccc(S(=O)(=O)NC2OC(=O)c3ccccc32)cc1 (stereo not given) | -1.2 | -3.3% | i
C/C(=N\NC(N)=O)C1(C)CCCCC1 | · | -8.0% | i
Cc1c(C#N)c2ccccc2n1CC(=O)NCC1CCCO1 (stereo not given) | -0.44 | 4.1% | i
Cc1ccc2c(c1)N(C(=O)CSc1nncn1C)C(C)(C)c1ssc(=S)c1-2 | -0.82 | 0.7% | i
Cc1c(NCc2cc(Cl)ccc2O)c(=O)n(-c2ccccc2)n1C | · | 7.4% | i
O=C1C(=O)N(CCCN2CCOCC2)C(c2cccs2)/C1=C(/O)c1ccc2c(c1)OCO2 (stereo not given) | -1.2 | -0.2% | i
O=S(=O)(CCSc1nc2ccccc2o1)c1nc2ccccc2s1 | 1.6 | -4.2% | i
COc1ccccc1-c1nc(C#N)c(N2CCC(C(N)=O)CC2)o1 | · | 2.5% | i
CCOc1ccc(-c2nc(C#N)c(NCC3CCCO3)o2)cc1 (stereo not given) | · | 1.7% | i
Cc1ccc(C(=O)O)cc1S(=O)(=O)N1CCC(C(=O)O)CC1 | -0.42 | -3.9% | i
COC(=O)c1ccccc1NC(=O)C1CC(=O)N(c2ccc(F)cc2)C1 (stereo not given) | 0.21 | -5.6% | i
Cn1c(=O)c2c(nc(NCCNC(=O)c3ccco3)n2Cc2ccc(Cl)cc2Cl)n(C)c1=O | -0.5 | -4.3% | i
CCn1c(=O)n(-c2ccc(Cl)cc2)c(=O)c2c3c(sc21)COC(C)(C)C3 | · | 2.5% | i
CCCCc1nnc(SCCSc2nnc(CCCC)n2N)n1N | -0.24 | 1.3% | i
O=C(Cn1c(=O)n(Cc2ccco2)c(=O)c2ccccc21)NCC1CCCO1 (stereo not given) | -1.5 | -4.5% | i
CC(OC(=O)CN1C(=O)NC(C)(C)C1=O)C(=O)c1ccccc1 (stereo not given) | · | 2.4% | i
Cc1cc(C)n(CCc2nc(-c3ccco3)cs2)n1 | · | 4.3% | i
O=C(Nc1ccc(-c2nc3cc(Cl)ccc3o2)cc1)C1CCCO1 (stereo not given) | · | 1.7% | i
O=C1CC(c2cccs2)Cc2nc(NCC3CCCO3)ncc21 (stereo not given) | -0.49 | -1.3% | i
O=C(Cn1cccc1)Nc1ccc(OC(F)(F)F)cc1 | 2.7 | -3.9% | i
Cc1ccc(-c2noc(CCC(=O)NCC3CCCO3)n2)cc1 (stereo not given) | · | -2.7% | i
CCOC(=O)c1ccc(N/C=C2\CCCCC2=O)cc1 | · | -16% | i
Cc1cccc(-n2c(CNC(=O)c3ccccc3)nnc2SCC(=O)Nc2nccs2)c1 | 1.6 | 6.8% | i
CCOC(=O)C1=C(C)N=c2s/c(=C\C(=O)OC)c(=O)n2C1c1ccc(OC)cc1 (stereo not given) | -0.62 | 2.9% | i

Reprinted at random: 2 records from the list
SMILES | WNV NS2B-NS3 inh | Hsc70 | MT1-MMP promoter
O=C(Cn1cccc1)Nc1ccc(OC(F)(F)F)cc1 | 2.7 | -3.9% | i
O=C(Nc1ccc(-c2nc3cc(Cl)ccc3o2)cc1)C1CCCO1 (stereo not given) | · | 1.7% | i

An excerpt from above in order of heavy-atom count, smallest number first:
SMILES | WNV NS2B-NS3 inh | Hsc70 | MT1-MMP promoter
C/C(=N\NC(N)=O)C1(C)CCCCC1 | · | -8.0% | i
Cc1ccc(-c2noc(CCC(=O)NCC3CCCO3)n2)cc1 (stereo not given) | · | -2.7% | i
Cc1cc(-n2c(C)cc(C(=O)CN3C(=O)NC4(CCCCC4C)C3=O)c2C)no1 (stereo not given) | -1.3 | -7.8% | i

The results go on:
SMILES | WNV NS2B-NS3 inh | Hsc70 | MT1-MMP promoter
CCc1cc2c(SCC(=O)O)ncnc2s1 | -2.6 | -3.5% | i
CCCCOC(=O)c1ccc(NC(=O)C2CCCO2)cc1 (stereo not given) | -1.1 | -9.7% | i
O=C1CCC(=O)N1OCCCOc1ccc(Br)cc1Cl | 1.7 | 0.1% | i
CC1(C)N=C(N)NC(Nc2cccc(Br)c2)=N1 | · | 0.3% | i
CC(=O)OCCNC(=O)c1cccnc1 | · | 0.1% | i
CC(=O)C1=C(O)C(=O)N(c2cc(C(C)(C)C)on2)C1c1ccc(Br)cc1 (stereo not given) | -0.97 | -3.5% | i
Cc1occc1C(=O)N/N=C/c1cnn(C)c1C | · | -1.5% | i
CC(=O)Nc1ccc(NC(=O)N2CCCCC2)cc1 | -0.02 | 0.6% | i
O=C1c2oc3ccc(F)cc3c(=O)c2C(c2ccncc2)N1CCN1CCOCC1 (stereo not given) | 0.94 | -1.9% | i
O=C(Nc1ccncc1)c1cn(-c2ccccc2)nc1-c1cccs1 | · | -4.1% | i
CCN(CC)CCCN(Cc1cc2cc3c(cc2[nH]c1=O)OCCO3)C(=O)Nc1ccccc1 | -1.3 | 5.0% | i
CCOC(=O)CSc1nnc(CNc2ccc(Cl)cc2)n1Cc1ccccc1 | · | -0.7% | i
CCc1cc(=O)oc2c(CN3CCCC3)c(O)c(Cl)cc12 | 8.9 | -5.1% | i
Cc1sc2nc(SCC(=O)NCc3ccco3)n(-c3ccccc3)c(=O)c2c1C | -0.84 | -10% | i
O=C(N/N=C\c1cn[nH]c1-c1ccccc1)c1cccnc1 | · | -0.3% | i
Cc1ccccc1-n1ncc2c([N+](=O)[O-])cc([N+](=O)[O-])cc21 | · | 1.7% | i
Cc1c(C(=O)NCCCN2CCOCC2)sc2ncnc(N3CCN(c4ccccc4)CC3)c12 | -0.25 | -8.9% | i
CCc1ccccc1NC(=O)N[C@@H](C)C(=O)OC | -0.12 | 3.9% | i
CC(=O)N1c2ccccc2C(=O)OC1c1cccnc1 (stereo not given) | 0.5 | 2.0% | i
Cc1ccc(/C=N/n2c(C)nnc2C)cc1 | 1.8 | 0.0% | i
CCOC(=O)CC(/C(C)=N\O)c1ccccc1 (stereo not given) | 0.06 | -3.2% | i
Cc1ccccc1NCc1ccccc1O | -0.78 | 2.3% | i
CCCCn1c(/N=C/c2ccc(N(C)C)cc2)nc2ccccc21 | · | -55% | i
O=C(CSc1nnc(-c2cnccn2)n1Cc1ccco1)Nc1ccc(Br)cc1 | 0.73 | -5.7% | i
Cc1cccc(N2CCN(C(=O)C3CCN(S(=O)(=O)c4cccc5cccnc45)CC3)CC2C)c1 (stereo not given) | -0.0027 | 9.2% | i

Single records, from the list above.
O=C(NCC12CC3CC(C1)CC(CNC(=O)N1CCCC1)(C3)C2)N1CCCC1 is listed as WNV NS2B-NS3 inh: -0.09; Hsc70: -0.6%; MT1-MMP promoter: i
CCc1ccccc1NC(=O)N[C@@H](C)C(=O)OC is listed as WNV NS2B-NS3 inh: -0.12; Hsc70: 3.9%; MT1-MMP promoter: i

Going on with the list:
SMILES | WNV NS2B-NS3 inh | Hsc70 | MT1-MMP promoter
CCCC(=O)Nc1ccc(-c2nc3cc(C)ccc3o2)cc1 | -0.03 | -4.8% | 12µM*
Cc1nc(CC(=O)Nc2nc(C(C)(C)C)cs2)cs1 | -0.33 | -1.5% | i
CC(=O)N1CCn2c3ccc(C)cc3c3cccc1c32 | · | 3.6% | i
O=C(Nc1ccccc1Oc1ccccc1)C1CC1 | -0.41 | -2.6% | i
Cc1cc(C)nc(-n2nc(C)c(C3(O)C(=O)Nc4ccc(F)cc43)c2N)n1 (stereo not given) | 1.5 | 2.7% | i
CC(NC(=O)C1CCN(c2nnc(-n3cccc3)s2)CC1)C12CC3CC(CC(C3)C1)C2 (stereo not given) | 0.17 | 9.0% | i
O=C(Nc1ccc(Oc2ccccc2)cc1)c1ccco1 | 0.66 | 10% | i
CCC1CCCCN1Cc1nc2c(c(=O)n(C)c(=O)n2C)n1CCC(C)C (stereo not given) | 0.28 | 2.9% | i
COC1CCCCC1Nc1ccc(C)c(C)c1 (stereo not given) | · | 6.3% | i
Cc1cc(C(=O)NCCCN2CCCC2=O)no1 | -0.68 | -0.2% | i
CC(=O)c1ccc(OCC(O)CN2CCCC(C)C2)cc1 (stereo not given) | 0.25 | 1.5% | i
Cc1nc2sc3c(NCc4ccco4)ncnc3c2c2c1COC(C)(C)C2 | -0.12 | -4.0% | i
Cc1cc(C)c2c(CN3CCN(CCO)CC3)cc(=O)oc2c1 | -0.62 | 5.3% | i
Nc1nnc(SCc2coc(-c3ccc(Cl)cc3)n2)s1 | -1.7 | 6.0% | i
CCOCCCn1cnc2c(c1=O)c1nc3ccccc3nc1n2-c1ccccc1 | -0.4 | 0.7% | i
C=CCC(Nc1ccccc1)C12C=CC(O1)C(C(=O)OC)=C2C(=O)OC (stereo not given) | · | -1.1% | i
CCOC(=O)Cc1c(C)nc2c(-c3ccccc3)c(C)[nH]n2c1=O | · | 5.6% | i
CCOc1ccc(C(=O)NCc2cccs2)cc1 | 2.4 | -7.2% | i
Cc1nc2c(nnn2Cc2ccccc2)c(=O)n1-c1ccccc1 | -0.86 | -5.3% | i
CCOC(=O)c1cccc(NC(=O)CCc2c(C)nc3ncnn3c2C)c1 | -0.11 | 2.0% | i
CCOC(=O)C(C)NC(=O)C(NC(=O)C1CCC(CC)CC1)C(C)C (stereo not given) | -1.1 | -3.1% | i
Cc1oc2cc(O)cc(O)c2c(=O)c1-c1ccc2c(c1)OCCCO2 | 0.41 | 8.6% | i
COc1nc(N(C#N)CC(N)=O)nc(N2CCCC2)n1 | -0.05 | -5.3% | i
CCOC(=O)c1[nH]c(C)c(C(=O)Nc2ccc(C)c(C)c2)c1C | 0.19 | 1.8% | i
Cc1cc(C)c2c(CC(=O)NCc3ccco3)coc2c1 | -0.3 | -0.9% | i
O=C(c1ccccc1)c1cncc(Br)c1 | 0.09 | -1.8% | i
O=C(Oc1ccc(-c2nnco2)cc1)N1CCOCC1 | -0.36 | 3.1% | i
CC(C)(C)NC(=O)CSc1nnnn1C(C)(C)C | -1.2 | -5.3% | i

By substructure: the entries above with a CF3 group
SMILES | WNV NS2B-NS3 inh | Hsc70 | MT1-MMP promoter
COc1ccc(S(=O)(=O)N2CCC(n3cnc4cc(C(F)(F)F)ccc43)CC2)cc1 | -0.47 | 1.2% | i
O=C(Cn1cccc1)Nc1ccc(OC(F)(F)F)cc1 | 2.7 | -3.9% | i

Screening data from PubChem BioAssay.

These rows are one share of the data; rates above refer to the full screens.
